From PubChem BioAssay
SARS PLP yeast = blocks SARS-CoV papain-like protease in a yeast assay; S. cerevisiae expressing SARS-CoV PLpro, growth rescue; control for the full effect not named in the record; Potency, µM (titrated, usually from 32.9 µM), for the others: at the highest dose activity, positive = growth rescue; 0.19% of 330,000 active; active means well fitted rising curve with a large enough effect; inconclusive means small, poorly fitted or top-dose-only effect; inactive means no such curve, though single readings can be large or run the other way; also: 0% is about no effect; nearly all actives have a fitted effect of over 55% in size; growth read by luminescence after 48 h
NS1 inh = blocks influenza NS1 protein function; Potency, µM (top dose mostly 46.1 µM), for inactives: top-dose activity, positive = more growth; S. cerevisiae slowed by influenza A NS1, growth recovery by OD600; 0.4% of 270,000 active; active means well fitted rising curve with a large enough effect; inconclusive means small, poorly fitted or top-dose-only effect; inactive means no such curve, though single readings can be large or run the other way; also: nearly all actives have a fitted effect of over 50% in size
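Growth recovery, yeast-based: influenza A NS1 expressed in S. cerevisiae causes slow growth, and suppressors are detected by OD600. The parent strain without NS1 is used as positive control.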
RE007 growth inh = less growth of the S. pombe RE007 Vpr strain; S. pombe RE007 Vpr strain, BacTiter-Glo ATP luminescence, 24 h; control for the full effect not named in the record; Potency, µM (titrated, usually from 92.2 µM), for the others: at the highest dose activity change, negative = less growth; 0.21% of 360,000 active; active = well fitted falling curve with a large enough effect; inconclusive = small, poorly fitted or top-dose-only effect; inactive = no such curve, though single readings can be large or run the other way;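 also: % is scaled to controls: 0 for no effect and ±100 for the full control effect; nearly all actives have a fitted effect of over 50% in size; the assay follows cell death caused by Vpr and the record does not say whether a fall means rescue or toxicity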
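Fission yeast RE007 carrying one integrated HIV-1 vpr copy, seeded at OD 0.01 in PMG+AL medium with 23 nL pinned compound. Grown 24 h at 30 degrees; viability read by BacTiter-Glo luminescence after 5 min.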
Cruzain noTriton = inhibitors of Trypanosoma cruzi cruzain without detergent. P25779. purified cruzain, Z-FR-AMC fluorescence, no detergent. Potency, µM, for inactives: max response, negative = inhibition, actives largely listed as inhibitors. 2.3% of 200,000 active. AID 1476;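 also: plate controls were enzyme without inhibitor for no effect and buffer without enzyme for full effect; nearly all actives have a fitted effect of over 40% in size; top concentration of the series not given in the record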
Target sequence (P25779 123-467 limits assumed): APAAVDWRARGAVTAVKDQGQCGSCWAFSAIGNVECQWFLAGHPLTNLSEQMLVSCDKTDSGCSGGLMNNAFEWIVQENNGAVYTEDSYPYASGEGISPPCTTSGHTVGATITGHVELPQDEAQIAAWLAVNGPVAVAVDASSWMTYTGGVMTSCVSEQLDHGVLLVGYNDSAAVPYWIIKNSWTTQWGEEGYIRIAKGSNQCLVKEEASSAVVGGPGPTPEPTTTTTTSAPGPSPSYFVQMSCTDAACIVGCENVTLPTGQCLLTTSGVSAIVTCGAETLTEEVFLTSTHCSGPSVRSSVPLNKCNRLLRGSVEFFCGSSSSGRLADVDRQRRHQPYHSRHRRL
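Detergent-free condition (0.00005% Triton X-100) in acetate buffer pH 5.5 with DTT. 1.5 nM enzyme and compound were pre-mixed 15 min, then 2 uM Z-FR-AMC substrate added; reaction progress from fluorescence change between first and third reads (60 s).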
LASV entry inh = blocks Lassa virus binding to or entry into cells | AID 540256 | Lassa virus pseudotype entry inhibition, cell reporter; control for the full effect not named in the record | 1.2% of 300,000 active | Potency, µM (doses to about 37.9 µM), for inactives: at the highest dose activity change, negative = inhibition, usual class: inhibitors; active means well fitted inhibition curve with a large enough effect; inconclusive means small, poorly fitted or top-dose-only effect, or effect the other way; inactive means flat fitted curve, though single readings scatter; tested in HEK293 cells; also: % is scaled to controls: 0 for no effect and ±100 for the full control effect; nearly all actives have a fitted effect of over 50% in size; luciferase read-out
Cruzain inh Det = inhibitors of Trypanosoma cruzi cruzain with detergent; 0.43% of 200,000 active; AID 1478; Potency, µM, without a hit: max response, negative = inhibition, hits mostly inhibitors; P25779; purified cruzain, Z-FR-AMC fluorescence, 0.01% Triton;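 also: plate controls were neutral wells for no effect and buffer without enzyme for full effect; nearly all actives have a fitted effect of over 40% in size; top concentration of the series not given in the record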
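In this qHTS format, compounds are incubated with 1.5 nM cruzain for 15 min at room temperature before 2 uM Z-FR-AMC is added. Release of AMC is followed at 360/450 nm, and progress is taken as the 60 s fluorescence difference.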
StopGo reporter = FMDV 2A StopGo reporter, luciferase signal. human cells with a luciferase reporter of 2A StopGo recoding; control for the full effect not named in the record. Potency, µM (highest dose often 57.9 µM), without a hit: at the top dose signal change, negative = less light. 1.2% of 410,000 active. AID 1159524; active = well fitted falling curve with a large enough effect; inconclusive = small, poorly fitted or top-dose-only effect; inactive = no such curve, though single readings can be large or run the other way; tested in HEK293T cells; also: % is scaled to controls: 0 for no effect and ±100 for the full control effect; nearly all actives have a fitted effect of over 45% in size; luciferase light after 4 h
Marburg entry inh = Marburg virus entry inhibition. Marburg virus pseudotyped entry inhibition, cell reporter; control for the full effect not named in the record; about a third of the inactives were read at about 46 µM. Potency, µM (highest dose often 37.8 µM), without a hit: at the top dose activity change, negative = inhibition, usual class: inhibitors. 1.8% of 300,000 active. AID 540276; active = well fitted inhibition curve with a large enough effect; inconclusive = small, poorly fitted or top-dose-only effect, or effect the other way; inactive = flat fitted curve, though single readings scatter; tested in HEK293 cells; about a fifth of its hits are not listed in these tables; also: % is scaled to controls: 0 for no effect and ±100 for the full control effect; luciferase read-out
Starred values were filed as active, the others as inactive; u = inconclusive; x = not tested or not shown; & = joins results of further samples; [ ] = remark or other dose. Unless noted, calls follow the shape of the dose curve; as a rule, active = well fitted curve in the direction sought with a large enough effect; inconclusive = small, poorly fitted or top-dose-only effect, or another doubt; inactive = no such curve, though single readings can be large; an effect the other way counts as inactive or inconclusive. Potency is read from the fitted curve at half-maximal effect. Rows are unselected. About 4.7% of those tested had a hit in this group.

SMILES	SARS PLP yeast	NS1 inh	RE007 growth inh	Cruzain noTriton	LASV entry inh	Cruzain inh Det	StopGo reporter	Marburg entry inh
CCOC(=O)c1c(C)[nH]c(C)c1S(=O)(=O)N(C)CC(=O)N1CCN(c2cccc(C)c2C)CC1	x	x	x	u	5%[46.1 µM]	-5.4%	-10%	x
Nc1c(C(=O)c2ccccc2)sc(Nc2ccc(Cl)c(Cl)c2)c1C(=O)Nc1ccccc1	x	x	x	5%	u	-13%	-24%	x
CN(C)C(CNC(=O)c1ccc(S(=O)(=O)Nc2ccccc2)cc1)c1ccco1 (stereo not given)	-2%	x	7%	x	-3%	x	-8%	-14%
CN(C(=O)C(Cl)Cl)c1ccc(OC(=O)c2ccco2)cc1	1%	-7%	10%[18.4 µM]	-1%&-2%	-24%	-2.5%&-0.3%	-23%	4%&4%&4%&4%&4%
Cc1ccc(/C=C2/C(=N)N3N=C(CC(=O)N4CCCC4)SC3=NC2=O)o1	5%	27%	-14%	x	x	x	u	x
O=C(c1cccs1)N(Cc1nc2sc3c(c2c(=O)[nH]1)CCCC3)C1CCCC1	x	-53%	0%	-23%	3.5µM*	-9.2%	5%	u
O=C(C(=O)N1CCN(c2ccc(F)cc2)CC1)c1c[nH]c2ccccc12	-10%	x	6%	x	4%	x	4%	0%
COc1ccc(OCc2ccc(-c3nc(C#N)c(NCc4ccccc4)o3)o2)cc1	x	x	x	1%	-16%[46.1 µM]	-3.7%	-28%	6%[46.1 µM]
CC(NC(=O)Cn1ccsc1=N)C12CC3CC(CC(C3)C1)C2 (stereo not given)	11%	-9%	-11%	-10%	u	1.6%	-28%	10µM*
CC(C)COC(=O)n1c(=O)oc2ccc(S(=O)(=O)N3CCCCC3)cc21	1%	0%	14%	x	u	x	u	-22%[46.1 µM]
Cc1nn(-c2ccccc2)c2c1N(CC(=O)N1CCN(c3ccccc3F)CC1)C(=O)CS2	x	x	x	6%	-27%[46.1 µM]	-2.2%	0%	x
Cc1ccc(C)c(Oc2ncnc(N)c2[N+](=O)[O-])c1	1%	-7%	2%	-11%	-7%	2.3%	-14%	17%
CCC(CC)c1nnc(NC(=O)c2cccc(S(=O)(=O)N3CCc4ccccc43)c2)s1	1%	8.9µM*	-11%	u	u	-2.0%	x	-22%
CC(C)CN1CCN(Cc2cn(C)c3ccccc23)CC1CCO (stereo not given)	-9%	28%	-5%	x	2%	x	-1%	8%
COc1ccc(Cn2c(=O)c3[nH]cnc3n(-c3ccccc3C)c2=O)cc1	1%	-2%	4%	x	u	x	5%	u
O=C(O)CSc1nc2ccccc2n1Cc1ccccc1	0%	23%	3%	x	-4%	x	-20%	u
CC(=O)Nc1ccc(S(=O)(=O)Nc2nc3ccccc3nc2N2CCOCC2)cc1	2%	x	29%	x	1%	x	-5%	-1%
COC(=O)c1cc(S(=O)(=O)Nc2c(C)cccc2C)cn1C	-3%	20%	-1%	x	x	x	-14%	x
CN(C)S(=O)(=O)Oc1cccc(C(=O)Nc2ccc(Cl)c(Cl)c2)c1	-17%	2%	9%	5%	u	-3.2%	2%	-25%
CC(C)(C)OC(=O)N/N=C\c1ccc[nH]1	-1%	x	-7%	x	1%[46.1 µM]	x	24%	0%[46.1 µM]
Cc1nn(-c2ccccc2)c(N)c1N=O	-2%	0%	5%	x	x	x	-15%	x
CN(C)c1ccc(/C=N/n2c(COc3ccccc3)n[nH]c2=S)cc1	2%	-6%	25%	u	0.92µM*	-7.6%	5%	5%
CCCCOc1ccc(-c2c(C#N)c(N)[nH]c(=S)c2C#N)cc1	0%	9%	10%	x	x	x	-18%	x
CCCCn1c(N)c(N(CCOC)C(=O)CSc2nnc(-c3ccc(F)cc3)n2N)c(=O)[nH]c1=O	3%	x	5%	x	28%	x	-5%	-9%
CCOc1ccc(CC(=O)NNC(=S)NC)cc1Br	0%	0%	1%	x	3%	x	-17%	u
COc1ccccc1Oc1nc(C)c(C(C)=O)cc1C#N	-3%	x	2%	x	-28%	x	u	-15%[46.1 µM]
COc1ccc(CCCNC(=O)C2CCC(=O)N(Cc3ccc(Cl)cc3)C2)cc1 (stereo not given)	-3%	1%	-29%	x	u	x	-24%	-18%
CCCN1C(=O)S/C(=C\c2ccc(N3CCOCC3)cc2C)C1=O	7%	5µM*	x	20%	x	-1.7%	x	5%
Cc1cccc(OCC(=O)Nc2ccc(NC(=O)c3ccco3)c(C)c2)c1	-7%	-6%	4%	x	-10%	x	-3%	-15%[46.1 µM]
O=C(Cc1ccc(Cl)cc1)NNC1CC(=O)N(c2ccc3ccccc3c2)C1=O (stereo not given)	-2%	-5%	0%	x	x	x	-24%	x
CCOC(=O)C1=C(C)N=C2SC(C)C(=O)N2C1c1ccc(OC(C)=O)c(OC)c1 (stereo not given)	-16%	24%	0%	17%	-1%	-3.2%	-5%	-13%
COc1ccc(NC(=O)CN(C)C(=O)CCc2c[nH]c3ccccc23)cc1	0%	2%	0%	x	-18%	x	-7%	9%[46.1 µM]
CCCN1CCC(=O)N(CCSc2ccc(C)cc2)CC1	0%	-8%	-5%	x	x	x	33%[activator]	x
COc1cccc(CNC(=O)CCNS(=O)(=O)c2cccs2)c1	-2%	-10%	-1%	0%	8%	5.5%	14%	7%
COc1cc(CN2CCN(CCc3ccccc3)C(CCO)C2)cc(OC)c1 (stereo not given)	0%	2%	-12%	x	-1%	x	-6%	7%
CCCC(C)NC(=O)Cc1ccccc1 (stereo not given)	0%	8%	-15%	x	x	x	-23%	x
COc1ccc(CNc2ccc(-c3ccc(OC)cc3)nn2)cc1	-2%	-14%	9%	7%	28%	-0.6%	35%[activator]	15%
CC1CCN(C(=O)c2cc(Cl)nc3ccccc23)CC1	1%	-4%	24%	-18%	14%	-2.5%	-2%	0%
O=C(NCC(c1ccco1)N1CCCC1)c1sc2ccccc2c1Cl (stereo not given)	-3%	7%	4%	x	x	x	-16%	x
COC(=O)c1c(C)oc(C)c(C(=O)OC)c1=O	5%	u	18%	4%	5%	3.9%	-20%	u
CCCCn1c(=O)[nH]c(=O)c2c1nc(-c1ccc(OCCC)c(OCC)c1)n2CCOC	-5%	13%	-14%	x	u	x	-15%	-1%[46.1 µM]
Cc1ccc(-c2cnc(NCc3c(F)cccc3Cl)n2C)cc1	x	x	x	-9%	u	-1.6%	32%[activator]	u
Cc1cccc(NC(=O)CCCCCn2c(=O)[nH]c3ccsc3c2=O)c1	x	x	x	0%	5%[46.1 µM]	-3.4%	45%[activator]	u
C=CCc1cccc(CNn2cnnc2)c1O	0%	-4%	-8%	x	9%[46.1 µM]	x	-13%	15%[46.1 µM]
CCCCC(=O)Nc1ccc(NC(=O)c2ccc([N+](=O)[O-])cc2)cc1OC	7%	0%	x	-3%	0%	-1.3%	-13%	1%
CC(C)(C)/C(Cn1cncn1)=N\OC(=O)Nc1ccc(Cl)cc1	2%	-50%	-14%	4%	6%[46.1 µM]	-1.0%	-1%	5%[46.1 µM]
CNC(=S)N/N=C/c1c(C)nn(-c2ccc(F)cc2)c1Cl	-1%	-6%	-9%	x	u	x	-24%	u
CCCc1nnc(NC(=O)CC(=O)OCC)s1	11%	16%	13%	11%	5%	1.4%	-12%	u
COc1ccc(N=C2NC(=O)/C(=C\C=C\c3ccco3)S2)cc1	-1%	2%	-19%	x	u	x	8%	u
CC1CC(N(C(=O)C2CC2)c2ccccc2)c2ccccc2N1C(=O)C1CC1 (stereo not given)	-6%	4%	9%[3.69 µM]	2%	-7%	-2.4%	u	-4%
C/C(=N\Nc1ccc2nncn2n1)c1cccs1	-1%	-8%	-2%	x	u	x	47%[activator]	-2%[46.1 µM]
CC(=O)Oc1ccc(/C=N/NC(=S)Nc2ccccc2)cc1	u	17%	6%	-13%	u	-17%	21%	u
O=[N+]([O-])c1cccc(-c2nnc3c4ccccc4c4ccccc4n23)c1	-1%	4%	36%	2%	u	6.1%	u	-3%
Cc1ccc(C)c(S(=O)(=O)c2nnn3c2nc(N2CCOCC2)c2sccc23)c1	x	x	x	1%	u	-0.9%	27%	x
O=C(NCc1ccc(C(F)(F)F)cc1)C1CC(c2ccccc2[N+](=O)[O-])=NO1 (stereo not given)	-12%	-2%	-2%	-4%	x	-9.1%	-9%	3%
Cc1cccc(Cn2cccc2CNS(=O)(=O)c2ccccc2F)c1	x	x	x	-11%	-2%[46.1 µM]	-6.3%	7%	x
O=C(CSc1ccccn1)Nc1ccc2c(c1)C(=O)c1ccccc1C2=O	-3%	25%	x	u	u	-19%	-9%	6%
Cc1cc2oc(=O)c3c(c2cc1OC(=O)c1ccco1)CCCC3	1%	-12%	-6%	7%	-23%	2.1%	0%	u
COc1ccc(S(=O)(=O)N(CC(=O)Nc2cc(C)cc(C)c2)c2ccc(Cl)cc2)cc1	x	x	x	-25%	8%[46.1 µM]	-2.4%	0%	-16%[46.1 µM]
CN(C)/C=C(\C(=O)c1ccccc1)c1nnnn1-c1ccccc1	2%	6%	27%	x	3%	x	3%	-1%
(further entries)
SMILES	SARS PLP yeast	NS1 inh	RE007 growth inh	Cruzain noTriton	LASV entry inh	Cruzain inh Det	StopGo reporter	Marburg entry inh
Cc1ccc(Nc2nnc(C3C(=O)N(C)C4(C)CC3c3cc(Br)ccc3O4)s2)cc1 (stereo not given)	-6%	13%	-15%	u	u	-4.9%	-10%	u
CCNC(=O)CCCOc1ccc(Cl)cc1Cl	-1%	-52%	12%	-6%	38%[14.3 µM]	1.3%	67%[activator]	u
Cc1[nH]c2ccccc2c1C(=O)CN1CC(C)CC(C)C1 (stereo not given)	1%	7%	-3%	x	x	x	1%	x
Cc1cccc(C(=O)Nc2ccc(C(=O)/C=C/c3cccnc3)cc2)c1	4%	-26%	-28%	u	u	-13%	-22%	u
Cc1cc(C(=O)CSc2nc3ccccc3c(=O)[nH]2)c(C)n1C	5%	-9%	36%	-11%	4%	0.1%	28%	x
Cc1ccc(NC(=S)N2CCC(c3nc4ccccc4s3)CC2)cc1	-23%	u	-2%	u	-21%	3.1%	x	-22%
